Source: PubChem (National Center for Advancing Translational Sciences (NCATS))
RE007 growth inh – less growth of the S. pombe RE007 Vpr strain. S. pombe RE007 Vpr strain, BacTiter-Glo ATP luminescence, 24 h; control for the full effect not named in the record. Potency, µM (highest dose often 92.2 µM), for the others: at the top dose activity change, negative = less growth. hit rate 0.21% among 360,000. AID 651644; active = well fitted falling curve with a large enough effect; inconclusive = small, poorly fitted or top-dose-only effect; inactive = no such curve, though single readings can be large or run the other way;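 note: % is set by controls: 0 for no effect and ±100 for the full control effect; nearly all actives have a fitted effect of over 50% in size; the assay follows cell death caused by Vpr and the record does not say whether a fall means rescue or toxicity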
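Fission yeast strain RE007, carrying one chromosomally integrated HIV-1 vpr copy, was seeded at OD 0.01 in PMG+AL medium with 23 nL pinned compound. After 24 h at 30 °C and 99% humidity, viability was read by BacTiter-Glo luminescence.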
NS1 function inh – blocks influenza NS1 protein function; S. cerevisiae slowed by influenza A NS1, growth recovery by OD600; Potency, µM (highest dose often 46.1 µM), without a hit: at the highest dose activity, positive = more growth; hit rate 0.4% among 270,000; AID 2326; note: actives are rising curves; nearly all actives have a fitted effect of over 50% in size
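Growth recovery, yeast-based: influenza A NS1 expressed in S. cerevisiae causes slow growth, and suppressors are detected by OD600. The parent strain without NS1 is used as positive control.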
LASV entry inh – inhibitors of Lassa virus binding or cell entry | Lassa virus pseudotype entry inhibition, cell reporter; control for the full effect not named in the record | hit rate 1.2% among 300,000 | Potency, µM (top dose mostly 37.9 µM), for inactives: at the highest dose activity change, negative = inhibition, hits mostly inhibitors; active means well fitted inhibition curve with a large enough effect; inconclusive means small, poorly fitted or top-dose-only effect, or effect the other way; inactive means flat fitted curve, though single readings scatter; tested in HEK293 cells; note: % is set by controls: 0 for no effect and ±100 for the full control effect; nearly all actives have a fitted effect of over 50% in size; luciferase read-out
SARS PLP yeast – inhibitors of SARS-CoV papain-like protease in yeast; S. cerevisiae expressing SARS-CoV PLpro, growth rescue; control for the full effect not named in the record; hit rate 0.19% among 330,000; Potency, µM (titrated, usually from 32.9 µM), without a hit: at the top dose activity, positive = growth rescue; AID 485353; note: 0% is about no effect; nearly all actives have a fitted effect of over 55% in size; growth read by luminescence after 48 h
MARV entry inh – Marburg virus entry inhibition; Marburg virus pseudotyped entry inhibition, cell reporter; control for the full effect not named in the record; about a third of the inactives were read at about 46 µM; Potency, µM (titrated, usually from 37.8 µM), without a hit: top-dose activity change, negative = inhibition, hits mostly inhibitors; hit rate 1.8% among 300,000; active = well fitted inhibition curve with a large enough effect; inconclusive = small, poorly fitted or top-dose-only effect, or effect the other way; inactive = flat fitted curve, though single readings scatter; tested in HEK293 cells; about a fifth of its hits are not listed in these tables; note: % is set by controls: 0 for no effect and ±100 for the full control effect; luciferase read-out
2A StopGo – FMDV 2A StopGo reporter, luciferase signal | human cells with a luciferase reporter of 2A StopGo recoding; control for the full effect not named in the record | Potency, µM (series often up to 57.9 µM), for the others: top-dose signal change, negative = less light | hit rate 1.2% among 410,000 | AID 1159524; active = well fitted falling curve with a large enough effect; inconclusive = small, poorly fitted or top-dose-only effect; inactive = no such curve, though single readings can be large or run the other way; tested in HEK293T cells; note: % is set by controls: 0 for no effect and ±100 for the full control effect; nearly all actives have a fitted effect of over 45% in size; luciferase light after 4 h
Cruzain inh noDet – cruzain (T. cruzi) inhibition without detergent | P25779 | purified cruzain, Z-FR-AMC fluorescence, no detergent | Potency, µM, for the others: max response, negative = inhibition, hits mostly inhibitors | hit rate 2.3% among 200,000 | AID 1476; active = well fitted curve in the direction sought with a large enough effect; inconclusive = small, poorly fitted or top-dose-only effect, or another doubt; inactive = no such curve, though single readings can be large; an effect the other way counts as inactive or inconclusive;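 note: plate controls were enzyme without inhibitor for no effect and buffer without enzyme for full effect; nearly all actives have a fitted effect of over 40% in size; top concentration of the series not given in the record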
Target sequence (P25779 123-467 limits assumed): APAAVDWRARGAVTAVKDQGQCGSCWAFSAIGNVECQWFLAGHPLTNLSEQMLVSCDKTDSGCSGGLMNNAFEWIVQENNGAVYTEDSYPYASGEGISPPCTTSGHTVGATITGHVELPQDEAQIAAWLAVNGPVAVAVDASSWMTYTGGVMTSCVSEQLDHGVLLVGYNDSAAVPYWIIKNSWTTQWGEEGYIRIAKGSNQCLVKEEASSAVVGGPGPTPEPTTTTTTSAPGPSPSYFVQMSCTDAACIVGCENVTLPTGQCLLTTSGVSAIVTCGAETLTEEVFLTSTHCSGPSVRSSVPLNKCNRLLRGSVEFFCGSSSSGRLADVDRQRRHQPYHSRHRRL
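Purified cruzain at 1.5 nM, pre-incubated 15 min with compound at room temperature in 100 mM sodium acetate pH 5.5, 5 mM DTT, 0.00005% Triton X-100. Reaction started with 2 uM Z-FR-AMC; AMC fluorescence increase over 60 s gives rate.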
Cruzain Triton – blocks cruzain activity in presence of Triton detergent. P25779. purified cruzain, Z-FR-AMC fluorescence, 0.01% Triton. Potency, µM, for the others: max response, negative = inhibition, hits mostly inhibitors. hit rate 0.43% among 200,000; active = well fitted curve in the direction sought with a large enough effect; inconclusive = small, poorly fitted or top-dose-only effect, or another doubt; inactive = no such curve, though single readings can be large; an effect the other way counts as inactive or inconclusive;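 note: plate controls were neutral wells for no effect and buffer without enzyme for full effect; nearly all actives have a fitted effect of over 40% in size; top concentration of the series not given in the record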
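In this qHTS format, compounds are incubated with 1.5 nM cruzain for 15 min at room temperature before 2 uM Z-FR-AMC is added. Release of AMC is followed at 360/450 nm, and progress is taken as the 60 s fluorescence difference.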
The depositor's hits bear a star; u = inconclusive; x = no result given; & = joins results of further samples; [ ] = remark or other dose. Unless noted, calls come from the whole dose curve; as a rule, active means well fitted rising curve with a large enough effect; inconclusive means small, poorly fitted or top-dose-only effect; inactive means no such curve, though single readings can be large or run the other way. Potency is the fitted concentration of half-maximal effect.

nr	mol	RE007 growth inh	NS1 function inh	LASV entry inh	SARS PLP yeast	MARV entry inh	2A StopGo	Cruzain inh noDet	Cruzain Triton
1	CC1(C(=O)N2CC3(CC(c4cccc(NC(=O)CC(c5ccccc5)c5ccccc5)c4)=NO3)C[C@@H]2C(N)=O)CC1 (stereo not given in full)	23%	-32%	x	-4%	x	-18%	x	x
2	CCOC(=O)C(C)Oc1ccc(C2NC(=O)NC(C)=C2C(=O)Nc2ccccc2C)cc1 (stereo not given)	5%	4%	-5%	-3%	1%&0%	x	-3%	5.0%
3	Cc1ccc(C(=O)Nc2cnc3sc(C)nn3c2=O)cc1	28%	-4%	u	2%	1%	39%[activator]	-5%	3.7%
4	CCC(COC(=O)Nc1cccc(C)c1)NC(=O)OCC(C)C (stereo not given)	30%	-87%	u	-9%	-20%	22%	-3%	-2.2%
5	CCOC(=O)COc1cc(-n2c(=S)[nH]c3cc(OC)c(OC)cc3c2=O)c(Cl)cc1Cl	23%	x	-4%	2%	0%[46.1 µM]	u	x	x
6	CCCCn1c(=O)[nH]c(=O)c2c1nc(-c1ccc(C#N)cc1)n2C1CCCC1	1%	1%	3%	-4%	-9%[46.1 µM]	-24%	-12%	-7.7%
7	CCSc1nc(-c2ccc(OC)cc2)cc(-c2ccccc2)c1C#N	0%	3%	-6%	6%	-1%	-28%	-14%	-0.6%
8	COc1cccc(NC(=O)[C@@H](NC(=O)N2C[C@H]3C[C@@H](C2)c2cccc(=O)n2C3)C(C)C)c1	0%	13%	x	-5%	x	-17%	x	x
9	O=C(COc1ccc(S(=O)(=O)N2CCOCC2)cc1Cl)NC1CCCCC1	12%	-7%	-20%	-1%	3%	-8%	x	x
10	CCN(CC)S(=O)(=O)c1cc(NC(=O)COc2ccc(C#N)cc2OC)ccc1C	17%	-5%	u	-1%	u	u	10%	-1.7%
11	O=C(c1cccc(S(=O)(=O)N2CCCC2)c1)N(Cc1ccco1)C1CCS(=O)(=O)C1 (stereo not given)	4%	x	1%[46.1 µM]	0%	14%[46.1 µM]	-20%	x	x
12	Cc1ccc(C(=O)N/C(=C\c2ccc(F)cc2)C(=O)NCc2ccncc2)cc1	5%	6%	u	-6%	-18%	2%	2%	1.8%
13	O=C1[C@H]2[C@H]3[C@H](O)[C@H](O)C/C(=N\OC[C@@H](O)COCc4ccco4)[C@@H]3CC[C@H]2C(=O)N1c1ccc(F)cc1F	x	-21%	13%	9%	14%[14.2 µM]	x	u	-1.4%
14	Cn1cnc2c(SCc3ccccc3)ncnc21	2%	x	u	x	u	51%[activator]	x	x
15	CC(=O)c1ccc(NC(=S)NC(C)CCc2ccccc2)cc1 (stereo not given)	1%	-10%	x	-3%	x	6%	x	x
16	CC(On1nnc2ccc(S(=O)(=O)N3CCOCC3)cc21)C(=O)Nc1ccccc1F (stereo not given)	4%	x	0%	5%	13%[46.1 µM]	-10%	x	x
17	O=C(Cc1ccsc1)Nc1ccc(S(=O)(=O)C(F)F)cc1	14%	x	u	-2%	-23%[46.1 µM]	17%	x	x
18	Cc1ccc2nc(N(CCN(C)C)C(=O)c3ccc4ccccc4c3)sc2c1	5%	-19%	4%[46.1 µM]	-1%	11%[46.1 µM]	5%	x	x
19	COc1ccc(NC(=O)C(c2ccc(C)cc2)N(C)C(=O)c2ccc(=O)[nH]c2)cc1 (stereo not given)	-7%	3%	0%	12%	12%	-20%	-3%	-1.2%
20	O=C(CSc1ccc2c(c1)OCCO2)Nc1ccc(Br)cc1	u	-98%	u	-16%	0%	-8%	-11%	-1.9%
21	CCC1(c2ccccc2)C(=O)N(COC)C(=O)N(COC)C1=O	1%[18.4 µM]	-2%	x	1%	x	-18%	0%	4.0%
22	COc1ccc(CCN2CC(C(=O)NCC3(O)CCCCC3)CCC2=O)cc1 (stereo not given)	7%	-1%	2%	-4%	7%	3%	x	x
23	Cc1c(C(=O)OCc2ccccc2)[nH]c2c1C(=O)CC(c1ccc(N(C)C)cc1)C2 (stereo not given)	x	x	0%[46.1 µM]	x	0%[46.1 µM]	-1%	-5%	-2.4%
24	Cc1cc(C)c2c(CC(=O)Nc3cc(C(F)(F)F)ccc3Cl)coc2c1	x	x	-2%[46.1 µM]	x	9%[46.1 µM]	-11%	-5%	-1.4%
25	CCS(=O)(=O)c1ncc(CO)n1CCc1ccccc1	-3%	11%	12%	-9%	u	-7%	x	x
26	O=S(=O)(Nc1nc2ccccc2nc1NCC1CCCO1)c1cc(Cl)ccc1Cl (stereo not given)	-16%	4%	17%	-3%	-12%	4%	x	x
27	O=C(Nc1ccc(Cl)cn1)C1CCCN1S(=O)(=O)c1ccccc1 (stereo not given)	-7%	-6%	0%	1%	-26%	-24%	-5%	0.8%
28	O=C(CCN1C(=O)c2cccc3cccc(c23)C1=O)N1CCN(c2ccccc2F)CC1	10%	12%	11%[46.1 µM]	0%	6%[46.1 µM]	-14%	x	x
29	Cc1ccc2c(c1)c(=O)c(S(=O)(=O)c1ccc(C)c(C)c1)cn2CC(=O)Nc1ccccc1	x	x	-8%[46.1 µM]	x	u	4%	u	-2.9%
30	O=C(Cc1cccs1)Nc1nc2ccccc2s1	-10%	-61%	u	2%	0%	32%[activator]	-6%	-14%
31	COC(=O)C1=C(C)OC(N)=C(C#N)C1c1c(C)nn(-c2ccccc2)c1Cl (stereo not given)	7%	-4%	-9%	0%	1%&1%	-25%	-12%	-2.5%
32	Oc1ccc(CN2CCN(c3ccccc3)CC2)c2cccnc12	-12%	6%	u	11µM*	u	-21%	4%	-14%
33	Cc1cc(C)c(C(N)=O)c(NC(=O)Nc2ccccc2Cl)n1	-1%	-2%	u	8%	15%	28%	u	3.5%
34	CC1C/C(=N\Nc2ccc(S(N)(=O)=O)cc2[N+](=O)[O-])CC(C)(C)C1 (stereo not given)	24%	-2%	u	4%	u	u	-7%	-10%
35	N#Cc1c(-c2cccs2)nc(SCC(=O)c2cccs2)[nH]c1=O	-5%	24%	16%	0%	27%	-11%	-1%	-23%
36	Clc1ccc(-c2nnc3n2-c2ccccc2SC3)cc1	0%	1%	15%	-1%	-11%[46.1 µM]	-21%	x	x
37	COc1ccc(OC)c(C(=O)c2ccc(C(=O)Nc3ccc4ccccc4c3)cc2)c1	2%	3%	10µM*	-2%	u	-12%	u	-0.6%
38	COc1ccccc1CNC(=O)COc1ccc2c(c1)CCC2	-22%	x	u	2%	2%	43%[activator]	x	x
39	Cc1ccc(S(=O)(=O)c2nc(NCc3ccc4c(c3)OCO4)sc2Cl)cc1	5%	8%	-7%	0%	-1%	-10%	u	-4.4%
40	CC(CCc1ccccc1)NC(=O)COC(=O)C12CC3CC(CC(Br)(C3)C1)C2 (stereo not given)	-4%	-34%	-2%	-27%	3%	2%	6%	-2.2%
41	Cc1cc([N+](=O)[O-])ccc1NCc1cccc([N+](=O)[O-])c1	10%	4%	u	2%	-5%	u	2%	-7.2%
42	CC(C)Nc1ccc(C(CC(N)=O)NC(=O)Cc2ccc(Br)cc2)cc1[N+](=O)[O-] (stereo not given)	1%	3%	x	2%	x	-16%	x	x
43	COc1ccc(CCN2C(=O)NC(NS(=O)(=O)c3ccccc3)(C(F)(F)F)C2=O)cc1OC (stereo not given)	4%	4%	7%	-2%	3%[46.1 µM]	18%	x	x
44	CCOC(=O)N/N=C\c1ccc(OC/C=C/c2ccccc2)cc1	-1%	6%	-1%[46.1 µM]	9%	-1%[46.1 µM]	11%	x	x
45	O=S(=O)(Nc1ccc(S(=O)(=O)N2CCCC2)cc1)c1ccc(F)cc1	25%	-8%	-2%	8%	-2%[46.1 µM]	0%	x	x
46	CC/C(C)=N/Oc1nc(C)cc(C)n1	9%	-1%	x	0%	x	10%	x	x
47	CCOc1ccc(C(=O)Oc2c(Sc3ccccc3)c(C)nn2C(C)(C)C)cc1OCC	x	x	-28%[46.1 µM]	x	u	-26%	10%	-5.2%
48	Cc1cc(C)c2nc(-c3ccccn3)cc(C(=O)Nc3cc(C)on3)c2c1	-14%	-40%	10%	-3%	-2%	-8%	u	-3.7%
49	O=C1NC(=O)c2c(NC(=O)C3CCCO3)cccc21 (stereo not given)	-9%	-14%	-11%	x	9%	-18%	-2%	-1.7%
50	CCCCNC(=S)NNC(=O)CCn1nc(C)c(Br)c1C	-14%	0%	u	4%	u	12%	-4%	3.7%
51	Oc1cccc(NC(=S)N=Nc2c(O)[nH]c3ccccc23)c1	-2%	3%	-26%	0%	-7%[46.1 µM]	6%	x	x
52	O=C(Nc1ccc(Cl)cn1)C1CCCN1S(=O)(=O)c1ccc(Cl)cc1 (stereo not given)	6%	-17%	-16%	-3%	-11%	0%	-9%	-3.4%
53	CC(=O)Nc1ccc(S(=O)(=O)NCCc2ccccc2)cc1	7%	-6%	-5%	2%	1%	63%[activator]	5%	1.6%
54	O=C(Nc1ccc2oc(-c3ccc4ccccc4c3)nc2c1)c1cc(Cl)ccc1Cl	x	x	-18%[46.1 µM]	x	x	-6%	5µM*	-1.0%
55	O=[N+]([O-])c1ccc2c(c1)C(=Nc1ccccc1)c1ccccc1-2	-2%	x	u	x	u	-6%	x	x
56	COc1cc2cc(C(=O)Nc3ccc4c(c3)OCCO4)[nH]c2cc1OC	-2%	7%	x	6%	x	u	x	x
